HTT cytoprotect: qHTS Multiplex Assay to Identify Dual Action Probes in a Cell Model of Huntington: Cytoprotection (ATP). Potency, µM (series often up to 56.4 µM), for inactives: cytoprotection (ATP increase), usual class: activators. AID 1471, 2008. actives 0.14% (n = 230,000). PC12 HTT-Q103 induced, cytoprotection, ATP luminescence, 40 h;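 further: % of control where 0% means no effect; nearly all actives have a fitted effect of over 45% in size; toxic huntingtin expression switched on by the ecdysone agonist tebufenozide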
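Stable PC12 Q103-GFP cells in serum-supplemented, phenol red-free DMEM; induction by tebufenozide at 100 nM final; compound dose series; cell viability quantified luminescently from ATP.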
KDM4E inh: qHTS Assay for Inhibitors of Human Jumonji Domain Containing 2E (JMJD2E); JMJD2E catalytic domain, FDH-coupled NADH fluorescence (FDH is formaldehyde dehydrogenase); Potency, µM (doses to about 57.1 µM), for inactives: at the highest dose activity change, negative = inhibition, hits mostly inhibitors; actives 1.6% (n = 230,000); AID 2147, 2009; active means well fitted inhibition curve with a large enough effect, not every such curve was filed as active; inconclusive means small, poorly fitted or top-dose-only effect, or another doubt; inactive means no such curve, though single readings can be large or run the other way;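 further: 0% = wells with enzyme and -100% = buffer wells without enzyme; nearly all actives have a fitted effect of over 50% in size; many of its hits are not listed in these tables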
Target sequence (B2RXH2 1-337 limits assumed): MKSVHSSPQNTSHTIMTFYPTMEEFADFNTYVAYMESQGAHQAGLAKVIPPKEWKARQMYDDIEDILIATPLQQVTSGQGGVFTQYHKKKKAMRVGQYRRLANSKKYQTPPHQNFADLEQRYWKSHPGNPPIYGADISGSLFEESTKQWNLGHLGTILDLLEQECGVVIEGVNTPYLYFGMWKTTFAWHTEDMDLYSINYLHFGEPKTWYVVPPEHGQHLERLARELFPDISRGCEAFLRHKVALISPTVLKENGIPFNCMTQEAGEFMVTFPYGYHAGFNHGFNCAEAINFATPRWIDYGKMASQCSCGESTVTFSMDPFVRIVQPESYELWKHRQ
Tau fibril FP: qHTS for Inhibitors of Tau Fibril Formation, Fluorescence Polarization. Microtubule-associated protein tau (Homo sapiens), P10636. K18 P301L tau heparin fibrillization, Alexa594 FP, 6 h. Potency, µM (top dose mostly 57.7 µM), for inactives: at the highest dose activity, negative = inhibition, most hits filed as inhibitors. actives 0.39% (n = 280,000); further: on the % scale 0 is the no-effect control and ±100 the full control effect; nearly all actives have a fitted effect of over 55% in size
Target sequence (P10636 561-689 P618L limits assumed): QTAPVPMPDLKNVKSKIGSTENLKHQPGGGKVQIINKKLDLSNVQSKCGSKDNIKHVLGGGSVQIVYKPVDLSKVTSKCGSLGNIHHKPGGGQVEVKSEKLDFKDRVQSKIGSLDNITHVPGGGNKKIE
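K18 P301L tau (15 uM unlabeled/0.24 uM Alexa 594-labeled, final) + compound + heparin 20 uM final; 100 mM NaOAc pH 7; 6 hr 37 C; ThT 30 uM final added, 1 hr RT; FP ex 555/em 632 nm.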
Tau ThT inhib: qHTS for Inhibitors of Tau Fibril Formation, Thioflavin T Binding. Microtubule-associated protein tau (Homo sapiens), P10636. recombinant tau K18 P301L, heparin-induced fibrillization, ThT fluorescence. Potency, µM (doses to about 57.4 µM), inactives show at the highest dose activity, negative = inhibition, hits mostly inhibitors. actives 2.1% (n = 270,000); further: on the % scale 0 is the no-effect control and ±100 the full control effect; nearly all actives have a fitted effect of over 55% in size
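Heparin-induced fibrillization of the P301L-mutant K18 repeat-domain fragment of human tau was followed by ThT binding in quantitative high-throughput format.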
SMN2 splice enh: qHTS Assay for Enhancers of SMN2 Splice Variant Expression | HEK293 SMN2-luciferase splicing reporter, luminescence, 30-36 h | Potency, µM (highest dose often 46.1 µM), for the others: at the highest dose activity change, positive = activation, usual class: activators | actives 2.8% (n = 210,000); further: % of control where 0% means no effect; nearly all actives have a fitted effect of over 55% in size
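qHTS luciferase splicing reporter: luminescence rises when SMN2 exon 7 is included in transfected HEK293 cells. Compound exposure lasted 30-36 h at 37C, with 4.5 mM final sodium butyrate as control, followed by a ONE-Glo read.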
HTT aggregate: qHTS Multiplex Assay to Identify Dual Action Probes in a Cell Model of Huntington: Aggregate Formation (GFP); PC12 HttQ103-GFP aggregates, Acumen cytometry, 40 h; Potency, µM (series often up to 46.1 µM), for the others: top-dose activity change, negative = inhibition, most hits filed as inhibitors; actives 1.1% (n = 220,000); AID 1688, 2009; further: on the % scale 0 is the no-effect control and ±100 the full control effect; nearly all actives have a fitted effect of over 60% in size
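Inducible Q103 Huntingtin exon 1–GFP PC12 line, 1500 cells/well in phenol red free DMEM with 5% equine and 5% calf serum. Tebufenozide 100 nM induced expression; compounds titrated; aggregates quantified by cytometry.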
Tau fluor counter: Counterscreen qHTS for Inhibitors of Tau Fibril Formation, Fluorescence Polarization; tau K18 P301L Alexa594 fluorescence, heparin fibrillization; Potency, µM (doses to about 57.7 µM), for the others: top-dose activity change, negative = decrease; actives 0.93% (n = 280,000); AID 1463, 2008; further: on the % scale 0 is the no-effect control and ±100 the full control effect; nearly all actives have a fitted effect of over 55% in size
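Human tau K18 P301L (15 uM unlabeled, 0.24 uM Alexa 594-labeled) in 100 mM sodium acetate pH 7 with 20 uM heparin, 6 hr at 37 C. ThT 30 uM added, 1 hr ambient; Alexa 594 FP and total fluorescence read at 555/632 nm.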
The depositor's hits bear a star; ? = inconclusive; nt = not tested or not shown; & = joins results of further samples; [ ] = dose if it differs, or a comment. Unless noted, the call rests on the fitted dose curve; in most records, active means well fitted curve in the direction sought with a large enough effect; inconclusive means small, poorly fitted or top-dose-only effect, or another doubt; inactive means no such curve, though single readings can be large; an effect the other way counts as inactive or inconclusive. Potency means the concentration at half of the fitted maximal effect. Only part of the results is shown; count on the stated rates, not on these rows.

SMILES	HTT cytoprotect	KDM4E inh	Tau fibril FP	Tau ThT inhib	SMN2 splice enh	HTT aggregate	Tau fluor counter
O=C(Nc1cccnc1)c1ccc(S(=O)(=O)N2CCCCCC2)cc1	10%	11%	9%	-8%	-4%	-3%[9.22 µM]	-19%
Cc1ccc(C(=O)COC(=O)c2n[nH]c(=O)c3ccccc23)cc1	10%	-1%	-9%	-23%	5%	-16%	-13%
Cc1sc2ncnc(N3CCOCC3)c2c1C	-6%	-1%	7%	8%	18%	-32%	-2%
CCC(=O)Nc1ccc(S(=O)(=O)NCCc2ccccc2)cc1	?	-1%	4%	-8%	-14%	-1%[9.22 µM]	-12%
CCCN(CCC)S(=O)(=O)c1ccc(C(=O)Nc2nnc(-c3cc(OC)cc(OC)c3)o2)cc1	-3%[10 µM]	11%	3%	-5%	-81%[inhibitor]	6.3µM*	-16%
CCOC(=O)CSC(CC)C(=O)Nc1nnc(CC)s1 (configuration not stated)	7%	-3%	-12%	0%	3%	-4%	-1%
CC1CCCCN1C(=O)COc1ccc(NC(=O)c2ccco2)cc1 (configuration not stated)	-17%	0%	-10%	-2%	-4%	13%	-7%
CC(=O)N1C(=O)C2(Nc3ccccc3N2)c2ccccc21	-13%	-7%	-13%	-2%	-5%	-7%	0%
Cc1ccc(S(=O)(=O)NNC(=O)c2cccnc2)cc1	-17%	-2%	?	-5%	-12%	-14%	0%
O=C1N/C(=C\c2ccc(O)cc2)C(O)=C1C=NCc1ccccc1	-52%[inhibitor][10 µM]	-7%	11%	?	-21%	-26%	?
O=C(COC(=O)C12CC3CC(CC(Br)(C3)C1)C2)N1CCOCC1	-27%	1%	2%	1%	23%	1%	-2%
COC(=O)c1ccc(S(=O)(=O)NCc2ccc(S(N)(=O)=O)cc2)o1	-3%[10 µM]	-13%	-3%	-1%	nt	-1%[9.22 µM]	-7%
COc1nc(NC(C)=O)nc(C)c1Br	-13%	4%	-7%	4%	2%	13%	-2%
O=C(c1ccc(F)cc1)N(Cc1ccccc1)C1CCS(=O)(=O)C1 (configuration not stated)	11%	2%	5%	9%	-1%	-7%	12%
O=C(Nc1nc2ccc(Cl)cc2s1)c1ccc(Br)o1	5%[1.9 µM]	19%	-14%	-13%	11µM*	3%	-7%
COc1ccc(/C=N/N2CCN(C)CC2)c(OC)c1OC	-20%	14%	1%	0%	2%	5%	2%
N/C(=N\N=C\c1ccco1)SC1CC(=O)N(c2ccc(C(=O)O)cc2)C1=O (configuration not stated)	-17%	3%	-6%	-6%	6%	-16%	-3%
COc1ccc2c(CC(=O)Nc3nnc(C4CC4)s3)coc2c1	-14%[1.9 µM]	-20%	2%	?	0%	16%	-13%
Cc1ccc(N2CCN(/N=C/c3cccs3)CC2)cc1	16%[10 µM]	-5%	5%	?	-2%	3%	-17%
Cc1cc(C)nc(SCc2cnc(C)nc2N)n1	-14%	11%	1%	3%	4%	11%	4%
C/C(CC(=O)NCc1ccco1)=N\NC(=O)COc1ccc(Cl)cc1Cl	7%[10 µM]	14%	4%	-17%	nt	6%[9.22 µM]	-10%
Cc1cccc(C(C)C)c1NC(=O)C1CN(S(=O)(=O)c2ccccc2)CCN1S(=O)(=O)c1ccccc1 (configuration not stated)	-6%[10 µM]	-6%	4%	-9%	nt	32%	-18%
CC(C)(C)NC(=O)NC(=O)COC(=O)c1ccc(OC(F)F)cc1	4%[10 µM]	9%	2%	-6%	-2%	4%	-12%
NC(=O)c1nn(-c2ccccc2)c(=O)cc1O	-19%	-5%	-4%	-13%	13%	-5%	-10%
Cc1sc2ncnc(Nc3ccc(O)cc3)c2c1C	0%[10 µM]	-9%	11%	-22%	nt	6%[9.22 µM]	-13%
C/C(CC(=O)Nc1cccc(C(F)(F)F)c1)=N\NC(=O)C(=O)NCC(C)C	5%	-4%	-4%	8%	nt	15%	0%
O=C(Nc1cccc(Cl)c1N1CCCC1)c1ccc([N+](=O)[O-])o1	nt	4%	4%	-6%	-29%	8%	-19%
COc1ccccc1NC(=O)COC(=O)[C@@H]1CCCN1C(=O)c1cccs1	11%	?	5%	-12%	15%	7%	-8%
Cc1cc(C)c(C)c(OCC(=O)O/N=C(\N)c2ccccn2)c1	-2%	4%	-15%	-27%	-10%	-1%	-15%
CCOC(=O)C1C(C#N)=C(N)OC(C)=C1c1ccncc1 (configuration not stated)	-17%[0.074 µM]	?	-12%	?	-18%	-1%	-7%
O=C(O)c1csc(N/N=C/c2ccc(Br)cc2)n1	-13%[10 µM]	-7%	0%	?	-5%	13%	?
CS(=O)(=O)NCCCNc1ccc(Cl)cc1[N+](=O)[O-]	-18%	-2%	5%	?	-5%	-10%	-14%
CCOc1c(Cl)cc(CNCC(C)C)cc1OC	3%	-3%	-8%	1%	0%	14%	-3%
CCCOc1ccc(S(=O)(=O)n2cc(Br)c(=O)[nH]c2=O)cc1	-38%	-1%	1%	-17%	-11%	-3%	-9%
COc1ccc(CCNC(=O)/C(C#N)=C2\N=C(NC(=O)c3cccs3)c3ccccc32)cc1	-10%[10 µM]	-18%	11%	-17%	-21%	-18%	?
O=S(=O)(NCc1ccncc1)c1ccccc1	11%	-3%	2%	-8%	-95%[inhibitor]	20%[1.84 µM]	-3%
COc1ccc(NC(=O)N2CCC3(CC2)CCN(C(=O)c2ccncc2)CC3)cc1	-20%	nt	nt	nt	-7%	nt	nt
CCN(C(=O)CSc1nc2cc(C(F)(F)F)ccc2n1Cc1ccccc1)C1CCS(=O)(=O)C1 (configuration not stated)	28%[10 µM]	-3%	-2%	0%	-13%	20%	6%
CC1CCCN(C(=O)C2CCCN(S(=O)(=O)c3cccc4nsnc34)C2)C1 (configuration not stated)	10%	2%	-5%	-9%	-13%	12%	-9%
CC1=C2C(O)C(=O)OC3CC4C(C)(C)C(=O)C=C[C@]4(C)C(CC1)[C@@]23C (some centres not stated)	-24%	1%	?	-9%	0%	nt	-17%
COc1ccc(-n2c3c(cc(C(=O)N4CCCCC4)c2=O)C(=O)CC(C)(C)C3)cc1	17%[10 µM]	-2%	9%	3%	-18%	-17%	12%
CCN(c1nc(C)cc(OC)n1)S(=O)(=O)c1ccccc1	3%	1%	16%	4%	-17%	12%	-4%
Cc1c(C(=O)OCCOC(C)C)[nH]c2c1C(=O)CC(C)(C)C2	-10%	-5%	1%	-12%	-27%	-8%	-3%
Cc1cc(C(=O)NCCCN2CCCC2=O)cs1	4%[10 µM]	6%	5%	-4%	6%	2%	4%
COc1ccccc1N1CCSC1C(N)=O (configuration not stated)	-8%	2%	0%	0%	14%	-5%	2%
Nc1[nH]nc2c1NN(c1ccc(Cl)cc1Cl)N2	19%[10 µM]	-5%	?	3.5µM*	?	29%	?
Cc1ccc(-c2cccc(NC(=O)C3C4C=CC(C4)C3C(=O)O)c2)o1 (configuration not stated)	8%	?	9%	-13%	-3%	-12%[9.22 µM]	-4%
CC1=C(C(=O)OCc2ccccc2)C(c2ccc(C)o2)C2=C(CCCC2=O)N1 (configuration not stated)	-10%[1.9 µM]	-3%	10%	-4%	-31%[inhibitor]	-6%	-12%
CCOc1ccc(N2C(=O)CC(Sc3nnnn3-c3ccccc3)C2=O)cc1 (configuration not stated)	nt	-10%	-7%	?	2%	?	-14%
NCCCC(O)(P(=O)(O)O)P(=O)(O)O	?	-27%	0%&5%	-6%&2%	-3%	10%	-5%&-4%
CCOC(=O)c1cc(NC(=O)Nc2ccccn2)c(C)nc1C	-33%	6%	-1%	?	0%	-5%	-8%
O=C(NCc1ccccn1)c1ccc(Cl)s1	-10%	10%	-4%	2%	-20%	7%	-4%
COCCN1C(=O)N[C@@H](CCc2ccccc2)C(C(C)=O)=C1C	?	0%&-6%	-1%&0%	-2%&-12%	-12%&-28%	-13%	-6%&-10%
COc1ccc(NC(=O)Nc2ncccc2C)cc1	-10%[10 µM]	-2%	13%	-15%	11µM*	-4%	-4%
CC1CCN(S(=O)(=O)c2ccc(C(=O)OCc3ccc4c(c3)OCO4)cc2)CC1	1%	-4%	?	3%	-8%	0%	4%
CN1CCN(S(=O)(=O)c2ccc(N3CCN(S(=O)(=O)/C=C/c4ccccc4)CC3)nc2)CC1	14%[10 µM]	0%	0%	-14%	-1%	13%	-10%
Cc1noc(C)c1S(=O)(=O)NCCN1CCN(c2ccccc2)CC1	-10%	7%	1%	1%	-2%	1%	-5%
COc1ccc(N2C(=O)CCC(C(=O)c3ccccc3)=C2C)cc1	-8%	10%	4%	2%	-11%	-29%	-3%
COc1ccc(OC)c(NC(=O)C2CCN(c3ncccn3)CC2)c1	-22%[10 µM]	?	4%	2%	-9%	20%	-3%
CCN1CCN(S(=O)(=O)c2ccc(Cl)c(C(=O)Nc3nnc(CC(C)C)s3)c2)CC1	-17%	1%	-8%	-3%	-13%	-19%	-7%

Some of these compounds in order of molecular weight, smallest number first:
SMILES	HTT cytoprotect	KDM4E inh	Tau fibril FP	Tau ThT inhib	SMN2 splice enh	HTT aggregate	Tau fluor counter
COCCN1C(=O)N[C@@H](CCc2ccccc2)C(C(C)=O)=C1C	?	0%&-6%	-1%&0%	-2%&-12%	-12%&-28%	-13%	-6%&-10%
Cc1noc(C)c1S(=O)(=O)NCCN1CCN(c2ccccc2)CC1	-10%	7%	1%	1%	-2%	1%	-5%
CC1CCN(S(=O)(=O)c2ccc(C(=O)OCc3ccc4c(c3)OCO4)cc2)CC1	1%	-4%	?	3%	-8%	0%	4%
CN1CCN(S(=O)(=O)c2ccc(N3CCN(S(=O)(=O)/C=C/c4ccccc4)CC3)nc2)CC1	14%[10 µM]	0%	0%	-14%	-1%	13%	-10%

(listing goes on)
SMILES	HTT cytoprotect	KDM4E inh	Tau fibril FP	Tau ThT inhib	SMN2 splice enh	HTT aggregate	Tau fluor counter
CCOC(=O)c1sc(NC(=O)CCN2CCN(C)CC2)c(C(=O)OCC)c1C	2%[10 µM]	8%	5%	-1%	-13%	8%[9.22 µM]	4%
COc1ccc(-n2nnnc2SC(C)C(=O)NCC(=O)Nc2ccc(F)c(F)c2F)cc1 (configuration not stated)	32%[10 µM]	7%	4%	-2%	-22%	10%	-10%
O=C(Cc1ccc(Cl)cc1)NNC(=O)c1cnccn1	nt	-4%	-5%	-10%	-28%	14%	-15%
COC(=O)C1=C(C)NC(=O)C1(Nc1nccs1)C(F)(F)F (configuration not stated)	6%	-1%	2%	2%	?	5%	5%
